From PubChem
TRPV1 potentiator: potentiators of human vanilloid receptor 1 (TRPV1). Q8NER1. TRPV1-expressing cells, Fluo-8 calcium influx, capsaicin EC20 potentiation; host cell line not named in the record; control for the full effect not named in the record. potentiation, % at 8.33 µM. 320,000 tested, 0.02% active. AID 540277; active means potentiation above 80%; inconclusive means 30% to 80%; inactive means below 30%; note: 0% is about no effect
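TRPV1-expressing cells were cultured overnight at 35.5C and loaded with Fluo-8 calcium dye for 40 to 90 min at room temperature. After a 10 s baseline, compound was added and calcium influx was read kinetically for 3 min (ex 480/em 520 nm).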
Six1-Eya2 blk: inhibitors of human Six1/Eya2 interaction; Q15475+O00167; AlphaScreen GST-Six1/His-Eya2 binding, biochemical; active compounds read low; control for the full effect not named in the record; activity change, % (concentration not given with the values); 360,000 tested, 0.56% active; in the data active = activity change below about -65%; inconclusive = about -30% to -65%; inactive = above about -30%; note: % is set by controls: 0 for no effect and ±100 for the full control effect
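Homogeneous AlphaScreen proximity assay pairing GST-Six1 with His-tagged Eya2 (added as 5X mix: 250 nM and 500 nM) in 50 mM Tris pH 8.0, 300 mM NaCl, 1 mM TCEP. Glutathione donor and nickel acceptor beads; 1 h, 37 °C, dark.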
TRPML1 ag: human mucolipin-1 channel agonism | TRPML1-expressing cells, Ca2+ dye fluorescence, FDSS; host cell line not named in the record; reference of the full effect not given here | 410,000 tested, 0.12% active | Q9GZU1 | AID 624414 | activation, % (test concentration not listed); in the data active = activation above about 50%; inconclusive = about 30% to 50%; inactive = below about 30%; note: 0% is about no effect; the text of the record puts the active cut at 80%
Target sequence (Q9GZU1 whole entry, looked up): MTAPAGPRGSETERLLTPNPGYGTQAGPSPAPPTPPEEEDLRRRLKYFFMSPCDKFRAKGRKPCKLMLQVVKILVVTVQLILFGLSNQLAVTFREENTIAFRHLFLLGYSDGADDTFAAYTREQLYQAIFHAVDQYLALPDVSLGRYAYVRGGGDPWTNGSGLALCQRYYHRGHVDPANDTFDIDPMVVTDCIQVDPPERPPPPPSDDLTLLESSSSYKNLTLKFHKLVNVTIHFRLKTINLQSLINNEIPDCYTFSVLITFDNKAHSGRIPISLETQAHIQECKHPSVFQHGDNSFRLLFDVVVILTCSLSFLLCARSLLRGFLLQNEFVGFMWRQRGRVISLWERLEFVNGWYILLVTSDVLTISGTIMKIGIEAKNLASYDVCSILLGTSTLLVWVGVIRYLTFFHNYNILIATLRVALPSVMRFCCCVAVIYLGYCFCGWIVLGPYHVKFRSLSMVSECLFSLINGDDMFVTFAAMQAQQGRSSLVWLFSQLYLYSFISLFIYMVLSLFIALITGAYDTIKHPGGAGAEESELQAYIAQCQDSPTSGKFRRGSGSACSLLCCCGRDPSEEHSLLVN
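Tet-induced TRPML1-DL cells, 1,500 per well, cultured overnight, were loaded with a no-wash Ca2+ dye for 45–90 min. Calcium fluorescence was recorded on the FDSS for 110 s after compound addition, before the EC80 agonist (4 uM 54-4) was added.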
TRPML1 blocker: blocks the human TRPML1 channel; Q9GZU1; 390,000 tested, 0.02% active; TRPML1-inducible cells, Ca2+ dye fluorescence, FDSS; active compounds read low; inhibition of EC80 agonist-evoked calcium signal; activity change, negative = inhibition, % (no concentration beside the values); in the data active means activity change below about -50%; inconclusive means about -30% to -50%; inactive means above about -30%;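 note: stimulus is agonist 54-4 at its EC80 concentration; % is set by controls: 0 for no effect and ±100 for the full control effect; compound concentration not given in the record; the text of the record puts the active cut at -80%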
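Calcium fluorescence in TRPML1-DL cells induced overnight with Tet: a 110 s read after compound pin addition, then a 110 s antagonist read after challenge with 54-4 at 4 uM final (EC80).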
CtBP-E1A inh: CtBP/E1A binding inhibition | AlphaScreen GST-E1A/His-CtBP binding, 1536-well; active compounds read low; control for the full effect not named in the record | activity change, % (test concentration not listed) | 340,000 tested, 0.49% active; in the data active means activity change below about -65%; inconclusive means about -30% to -65%; inactive means above about -30%; note: % is set by controls: 0 for no effect and ±100 for the full control effect
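Homogeneous bead-based format: GST-tagged E1A captured on glutathione donor beads, His-tagged CtBP on nickel acceptor beads; compounds precede bead addition by 2 h at 37 °C.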
D2 potentiator: potentiates the human D2 dopamine receptor allosterically; DiscoveRx D2 beta-arrestin cells, luminescence, 90 min; 100% = 57 uM dopamine signal; potentiation, % (concentration not given with the values); 360,000 tested, 0.23% active; active = potentiation of 50% or more; inconclusive = 30% to 50%; inactive = 30% or less;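 note: compound concentration not given in the record; tested on top of an EC20 dose of dopamine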
Target sequence (P14416 whole entry, looked up): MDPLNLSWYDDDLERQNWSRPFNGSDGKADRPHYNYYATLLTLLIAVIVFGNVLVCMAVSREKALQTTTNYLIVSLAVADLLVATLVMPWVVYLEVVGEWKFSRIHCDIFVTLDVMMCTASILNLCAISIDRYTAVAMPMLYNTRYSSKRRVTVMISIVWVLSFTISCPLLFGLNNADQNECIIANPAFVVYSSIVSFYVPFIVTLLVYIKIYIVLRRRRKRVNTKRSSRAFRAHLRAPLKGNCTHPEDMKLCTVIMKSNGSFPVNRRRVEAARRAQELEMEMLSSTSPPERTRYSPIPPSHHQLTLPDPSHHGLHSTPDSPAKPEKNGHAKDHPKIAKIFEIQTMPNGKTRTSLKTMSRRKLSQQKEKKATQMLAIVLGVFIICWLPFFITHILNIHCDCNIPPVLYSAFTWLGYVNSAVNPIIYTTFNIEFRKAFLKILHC
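PathHunter D2 cells, attached overnight at 37 deg C, received compound in DMSO plus dopamine at EC20 (50 nM final) for 90 min at 37 deg C. Beta-arrestin recruitment was read as luminescence after 1 h with detection reagent at ambient temperature.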
* hit, by the source's call; ? = inconclusive; · = no result given; & = joins results of further samples. Compounds as they come; overall some 0.95% were active at least once.

Sequence of screens: TRPV1 potentiator | Six1-Eya2 blk | TRPML1 ag | TRPML1 blocker | CtBP-E1A inh | D2 potentiator
CCCN(CCC)CCCNC(=O)Cn1cnc2sc(C)c(S(=O)(=O)N3CCC(C)CC3)c2c1=O
→ -3 | -3 | 1.6&-0.2 | 8&5 | 1 | 5
C=CCc1c(NCCO)nc(C)[nH]c1=O
→ -10 | -14 | -0.1 | 2 | 0 | 0
COCCNC(=O)C(=O)NCC1CCCN1S(=O)(=O)c1cccs1 (stereo unspecified)
→ · | -5 | -0.9 | 0 | 3 | -4
O=C(O)c1ccc(OCc2occc2C(=O)O)cc1
→ 22 | -5 | -0.9 | 12 | 3 | -13
Cc1c(Cc2ccccc2)c(=O)oc2cc(OCC(=O)NC(Cc3ccc(Cl)cc3)C(=O)O)ccc12 (stereo unspecified)
→ 1 | -16 | · | · | -18 | -24
Cc1ccc(Cl)cc1NC(=S)N(Cc1cccnc1)Cc1ccccc1Cl
→ 8 | 1 | 2.8 | 9 | 3 | -7
CCN1CCN(S(=O)(=O)c2ccc(Cl)c(C(=O)NC3CCCC3)c2)CC1
→ ? | 4 | 0.7 | 4 | 8 | -6
CC1CCN(C(=O)COC(=O)c2nn(C)c(=O)c3ccccc23)CC1
→ -9 | -1 | -0.3 | -1 | 1 | 11
CNC[C@H](CC1CCCCC1)NC[C@H](CO)NCC1(c2ccccc2)CC1
→ 14 | -5 | -0.5 | -2 | -9 | -12
O=C1CCCC2=C1C(c1cccs1)n1nc(SCc3ccccc3F)nc1N2 (stereo unspecified)
→ 2 | 1 | 2.5 | 6 | 8 | -8
C=CCSc1nnc(C)c(/C=C/Nc2ccc(Cl)cc2)n1
→ -1 | -5 | 12 | -13 | -4 | -20
CCOC(=O)c1c(C)[nH]c(C)c1S(=O)(=O)NCCN1CCN(c2ccccc2F)CC1
→ 15 | -2 | -0.4 | -2 | -26 | -39
Cc1cccc(NC(=O)C(NS(=O)(=O)c2ccc3c(c2)CCC(=O)N3)c2ccccc2)n1 (stereo unspecified)
→ 0 | 0 | 0.6 | 8 | 0 | -4
C=C(C)Cn1c(CCCNC(=O)CCC)nc2ccccc21
→ 2 | 6 | 1.0 | 21 | -4 | 12
[N-]=[N+]=CC(=O)c1ccnc(C(=O)C=[N+]=[N-])c1
→ -37 | -9 | -0.7 | 1 | -6 | -30
CC1Cc2ccccc2N1C(=O)c1cnsn1 (stereo unspecified)
→ 4 | 9 | 0.1 | 5 | 7 | 0
CCN(C(=O)COC(=O)c1[nH]c(C)c(C(C)=O)c1C)c1c(N)n(Cc2ccccc2)c(=O)[nH]c1=O
→ 0 | -1 | 1.8 | -6 | 0 | -3
CCOC(=O)C1CCN(c2c(N3CCCC(C(=O)OCC)C3)c(=O)c2=O)CC1 (stereo unspecified)
→ -15 | 5 | -0.2 | 3 | -2 | -4
Cc1ccc(OCC(=O)NNc2c3ccccc3nc3ccccc23)cc1
→ 9 | -24 | 5.0 | 17 | -23 | 1
CCOc1ccc2c(ccc(/C=C/c3cc(C)c4cccnc4c3O)[n+]2C)c1
→ · | -90* | -0.3 | -2 | -94* | -33
CNC(=O)CC1C(=O)N(c2ccc(Cl)cc2)C(=S)N1CCc1ccc(OC)c(OC)c1 (stereo unspecified)
→ 3 | 1 | -0.2 | 6 | 2 | 1
COc1ccc(CCNC(=O)[C@H](C)N2C(=O)N3CCc4c([nH]c5ccccc45)[C@@]3(C)C2=O)cc1OC
→ 1 | -11 | · | · | -17 | -15
Cn1cc(Cl)c(-c2nc3ccccc3[nH]2)n1
→ 8 | -3 | -0.6 | 23 | 0 | -2
CCOC(=O)CC1=Nc2ccccc2NC(=O)C1
→ 18 | 3 | 0.9 | 26 | 9 | -8
COC(=O)c1c(NC(=S)Nc2ccccc2Cl)sc(C)c1C
→ -4 | -4 | -0.5 | 12 | 8 | -31
c1ccc(CSCc2ccccc2)cc1
→ 2 | 14 | · | · | 21 | -10
Clc1ccc(C2=Nn3c(nnc3-c3n[nH]c4c3CCC4)SC2)cc1
→ · | 0 | 3.2 | 35 | ? | -14
COc1ccc(N2C(=O)CC(C3CCCO3)C2=O)cc1 (stereo unspecified)
→ -5 | 9 | -0.2 | 2 | 16 | -7
C[C@H]1CCCCO[C@@H](CN(C)S(=O)(=O)c2ccc(Cl)cc2)[C@@H](C)CN([C@@H](C)CO)C(=O)c2cc(NS(=O)(=O)c3ccccc3)ccc2O1
→ · | -2 | -0.6 | 5 | 1 | 1
Cc1nc2ncnn2c(C)c1CCC(=O)NCCCN1CCN(c2cccc(Cl)c2)CC1
→ 6 | 0 | -0.6 | -17 | 1 | -1
Nc1ccc(N2CCN(c3ccc(Cl)c(Cl)c3)CC2)cc1
→ 8 | ? | 0.2 | -5 | ? | ?
CCCNC(=O)C(CC)NC(=O)c1cccc([N+](=O)[O-])c1 (stereo unspecified)
→ -17 | -3 | -0.9 | 2 | 6 | -12
Cc1ccc(C(C)NC(=O)Cc2cccs2)c(C)c1 (stereo unspecified)
→ -10 | 21 | 1.1 | -15 | -13 | -6
COc1ccc(CCNC(=O)C2(c3ccccc3)CC2)cc1
→ -2 | 6 | -0.4 | 5 | 10 | -18
CC(=O)c1cc2ccccc2oc1=O
→ 21 | -25 | -0.5 | 8 | · | -5
CCC(=O)Nc1c(C)ccc2nsnc12
→ -7 | -14 | -0.3 | 4 | -2 | 9
Cc1nc(-c2ccc(F)cc2)c(CC(=O)Nc2cc(S(=O)(=O)N3CCCCC3)ccc2C)s1
→ 7 | 2 | 4.0 | 2 | -20 | -6
Cc1cc(C)c2c(c1)OC(=O)CC2c1ccccc1C (stereo unspecified)
→ · | 7 | 5.4 | -12 | 8 | 1
O=C1NC(=S)N/C1=C\c1ccccc1OCc1ccc(C(=O)O)cc1
→ -5 | -18 | -1.0 | -3 | -12 | -2
COc1ccc(OC)c2nc3c(cc12)CCC3
→ 12 | -24 | -1.2 | 12 | -22 | -8
CC(=O)N(C)c1ccc(NC(=O)C(c2ccccc2)c2ccccc2)cc1
→ · | -9 | -0.5 | -2 | -5 | -4
COC(=O)c1c(NC(=O)COC(=O)[C@@H](NS(=O)(=O)c2ccc(C)cc2)C(C)C)sc2c1CCC2
→ -8 | -9 | 1.9 | 15 | -12 | -4
COc1ccc(OCC(O)CNC(=O)Nc2ccc(F)cc2)cc1 (stereo unspecified)
→ · | 7 | 0.4 | -21 | 3 | -4
CC(C)NC(=S)N/N=C/c1cccnc1
→ 0 | 4 | -0.8 | -9 | 7 | -6
CCCCCCCCNC(CO)(CO)CO
→ -12 | 7 | 0.3 | 5 | 9 | -3
S=c1nc(-c2cccc(Cl)c2)[nH][nH]1
→ -20 | -11 | -0.7 | 4 | 4 | -1
O=c1onc(-c2cccs2)n1Cc1ccccc1
→ -10 | 3 | -1.0 | -5 | 4 | 0
N#Cc1ccccc1NC(=O)C(=O)NCC1CCCN1S(=O)(=O)c1cccs1 (stereo unspecified)
→ 9 | 6 | 0.0 | 11 | -10 | 4
COc1cc([N+](=O)[O-])c(N2CCOCC2)c([N+](=O)[O-])c1OC
→ -10 | -10 | 0.3 | 11 | -7 | 1
COc1ccc(NC(=O)CSc2ccc3nnc(-c4cccnc4)n3n2)cc1
→ 0 | -6 | 1.2 | 3 | -6 | -6
Cc1ccc(CNC(=O)C2(C)CCN2C(=O)Cc2ccc(C(C)(C)C)cc2)cc1 (stereo unspecified)
→ · | -5 | -0.7 | · | 4 | -4
COc1cc(/C=C/C(=O)OCC(=O)Nc2cc(C(F)(F)F)ccc2N2CCOCC2)ccc1O
→ -5 | 7 | 2.6 | 33 | 1 | 14
Cc1nnc(SCC(=O)N(CC(C)C)c2c(N)n(Cc3ccccc3)c(=O)[nH]c2=O)n1N
→ -29 | 2 | 1.4 | 3 | 0 | 9
N=C(N)SCCc1cnc[nH]1
→ 4 | 4 | 1.0 | 3 | -23 | -3
CCN(C(=O)CSc1nc2cc(S(=O)(=O)N(CC)CC)ccc2n1CC)C1CCS(=O)(=O)C1 (stereo unspecified)
→ -1 | 2 | 0.9 | -3 | 1 | -13
CC1=C([N+](=O)[O-])C(c2cccc(Br)c2)C2=C(N1)c1ccccc1C2=O (stereo unspecified)
→ -7 | -20 | -0.3 | 0 | -5 | -9
Cc1ccccc1C(=O)Nc1ccnn1C1CCN(C(=O)c2cnsn2)CC1
→ 15 | 4 | 0.1 | -9 | 1 | -2
COc1ccc([N+](=O)[O-])cc1N(CC(=O)Nc1ccccc1C(=O)N1CCCC1)S(C)(=O)=O
→ 2 | -2 | 1.1 | -8 | -2 | -10
Cc1ccc(OCC(=O)N(C)CC(=O)Nc2ccc(N3CCOCC3)cc2)cc1
→ 18 | 2 | -0.6 | 0 | -1 | -9
Cc1cc([N+](=O)[O-])nn1CCCC(=O)N1CCN(c2ccccc2)CC1
→ 8 | -18 | -0.9 | -3 | · | -1

Single entries from the list.
`CCCCCCCCNC(CO)(CO)CO` in D2 potentiator has -3
`Cc1nnc(SCC(=O)N(CC(C)C)c2c(N)n(Cc3ccccc3)c(=O)[nH]c2=O)n1N` in TRPML1 blocker has 3

The listing picks up, repeating the two entries before the break.
Sequence of screens: TRPV1 potentiator | Six1-Eya2 blk | TRPML1 ag | TRPML1 blocker | CtBP-E1A inh | D2 potentiator
Cc1ccc(OCC(=O)N(C)CC(=O)Nc2ccc(N3CCOCC3)cc2)cc1
→ 18 | 2 | -0.6 | 0 | -1 | -9
Cc1cc([N+](=O)[O-])nn1CCCC(=O)N1CCN(c2ccccc2)CC1
→ 8 | -18 | -0.9 | -3 | · | -1
CC(=O)Nc1cccc(N(C(=O)C2COc3ccccc3O2)C(C(=O)NC2CCCCC2)c2cn(C)nc2C)c1 (stereo unspecified)
→ -18 | 4 | 1.4 | -30 | 0 | -2
CCCCSc1cc(=O)n(-c2ccccc2)nc1C(=O)OCC
→ 1 | 2 | 1.9 | -3 | 6 | -9
CC/C(O)=C1\C(=O)CC(C)(C)CC1=NCCc1nc2ccccc2[nH]1
→ 1 | 0 | 0.0 | 7 | -3 | -6
CC1(C)Oc2ccc(C(=O)Nc3ccccc3F)cc2N(CC(=O)N2CCOCC2)C1=O
→ -11 | 10 | -0.3 | 22 | 0 | -8
CC1(C)CC(=O)C=C(NCc2ccc(Cl)c(Cl)c2)C1
→ -12 | 2 | 5.1 | 7 | 4 | -5
O=C(N/N=C/c1cccs1)c1cc(-c2cccc3ccccc23)n[nH]1
→ -3 | -1 | 4.3 | 12 | · | -9
Cc1cc(C)cc(N(C(=O)CNS(=O)(=O)c2ccccc2)C(C(=O)NCc2ccccc2)c2ccc(C)o2)c1 (stereo unspecified)
→ ? | 2 | 0.1 | 7 | 5 | -17

Results in TRPV1 potentiator, CtBP-E1A inh and TRPML1 blocker (4 entries from above):
| Molecule | TRPV1 potentiator | CtBP-E1A inh | TRPML1 blocker |
| --- | --- | --- | --- |
| CCCCSc1cc(=O)n(-c2ccccc2)nc1C(=O)OCC | 1 | 6 | -3 |
| CC/C(O)=C1\C(=O)CC(C)(C)CC1=NCCc1nc2ccccc2[nH]1 | 1 | -3 | 7 |
| CC1(C)Oc2ccc(C(=O)Nc3ccccc3F)cc2N(CC(=O)N2CCOCC2)C1=O | -11 | 0 | 22 |
| CC1(C)CC(=O)C=C(NCc2ccc(Cl)c(Cl)c2)C1 | -12 | 4 | 7 |
